MgrA-DNA mod: modulators of Staphylococcus aureus MgrA DNA binding | fluorescence polarization | inhibition, %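 (about 10 µg/mL by stock and volumes)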 | 84,000 compounds, 0.13% hits | AID 602314;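 active = above 50% in either of two replicates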;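 also: 0% = protein plus DNA without compound and 100% = DNA alone without protein; higher means less MgrA bound to DNA so lower polarization; one replicate is shown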
S aureus helic: blocks Staphylococcus aureus DNA helicase | inhibition, %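 (tested at about 80 µM)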 | 120,000 compounds, 0.05% hits | purified S. aureus helicase, fluorescence unwinding assay; about half of the hits fall short of the stated cut;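 active = both duplicates at 50% or more, or one of them with a favoured structure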;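 also: 0% = mean of negative control wells and 100% = mean of positive control wells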
An asterisk follows results filed as active. Some of the compounds tested; count on the stated rates, not on these rows.

CC(=O)Nc1ccccc1N was read as MgrA-DNA mod -1.2 and S aureus helic 8.
Screening CN1CCC(N(C)C(=O)c2ccc(Cl)c(S(=O)(=O)Nc3ccccc3C(=O)N(C)C3CCN(C)CC3)c2)CC1 returned S aureus helic 17.
C/C(=N\NC(=O)c1ccc(NS(=O)(=O)c2ccc(Br)cc2)cc1)c1ccc(C)o1 was read as S aureus helic -9.
Cc1ccc(S(=O)(=O)NC2=NCN(C(C)C)CN2)cc1 was read as MgrA-DNA mod -0.4 and S aureus helic 0.
Screening CC(C)Cn1c(N)c(C(=O)COC(=O)[C@H](C)N=C2NS(=O)(=O)c3ccccc32)c(=O)n(C)c1=O returned S aureus helic -16.
For O=C(CSc1nc2ccccc2[nH]1)Nc1ccc(N2CCOCC2)cc1 the results were MgrA-DNA mod 0.0 and S aureus helic 5.
For CN(C)c1ccc(NC(=O)COc2cccc3ccccc23)cc1 the results were MgrA-DNA mod -0.8 and S aureus helic 1.
`COc1ccc(CC(=O)N2CCN(c3ccccc3)CC2)cc1` gave MgrA-DNA mod 0.5 and S aureus helic -2.
Screening Cc1nn(-c2ccccc2)c2sc(C(=O)N(C)c3ccccc3)cc12 returned S aureus helic 12.
`COc1ccc(Cl)cc1S(=O)(=O)N1CCC(C(N)=O)(N2CCCCC2)CC1` gave S aureus helic 0.
For O=C(OCCN1CCCCC1)c1cccs1 the results were S aureus helic 13.
`CCc1nnc(NC(=O)CCC(=O)N2CCC(O)CC2)s1` gave MgrA-DNA mod -2.7 and S aureus helic -1.
For CN=C1SC(CC(=O)NC)C(=O)N1C (centres undefined) the results were MgrA-DNA mod 0.6 and S aureus helic -4.
For FC(F)(F)c1cccc(-n2cccc2)c1 the results were MgrA-DNA mod -0.2.
`O=C(CCCN1C(=O)c2ccccc2C1=O)NC1=NCCS1` gave S aureus helic 14.
`C[n+]1ccc(/C=C/c2ccc3c(c2)OCO3)c2ccccc21` gave MgrA-DNA mod 21 and S aureus helic -33.
For O=C1/C(=C/c2ccccc2Br)Cc2ccccc21 the results were MgrA-DNA mod -0.7 and S aureus helic 10.
`CC1(C)Cc2cccc(C(=O)Nc3ccncc3)c2O1` gave MgrA-DNA mod -0.2.
`O=C(O)c1c2c(nc3ccc(F)cc13)CCCC2` gave MgrA-DNA mod -2.7 and S aureus helic 12.
O=C(Cc1cccs1)NC1(C(=O)NC2CCCC2)CCCCC1 was read as S aureus helic 4.

Pulled one by one from the list above:
For O=C(OCCN1CCCCC1)c1cccs1 the results were S aureus helic 13.
`O=C(O)c1c2c(nc3ccc(F)cc13)CCCC2` gave MgrA-DNA mod -2.7 and S aureus helic 12.

The list continues:
`Cc1cc(C)[n+]2c(n1)SC(C)C2` (centres undefined) gave S aureus helic 13.
CCc1nnc2c3c(-c4ccc(F)cc4)c(C)sc3ncn12 was read as MgrA-DNA mod -9.2 and S aureus helic -11.
Screening c1ccc(OCc2nn[nH]n2)cc1 returned S aureus helic -6.
Screening C/C(=C\C(=O)NN)NNc1ncnc2ccccc12 returned S aureus helic 6.
Screening COC(=O)c1cc2c(ccn2-c2ccc(F)cc2)n1CC(=O)c1ccc(OC)cc1 returned MgrA-DNA mod -1.1 and S aureus helic 0.
For O=C(Nc1cccc(-c2nc3ccccc3[nH]2)c1)c1cccc(N2C(=O)CCC2=O)c1 the results were S aureus helic 6.
CCCNC(=O)c1ccc2c(c1)NC(=O)/C(=C/c1ccccc1)S2 was read as MgrA-DNA mod -0.3 and S aureus helic -18.
`O=C(O)CSCC(=O)Nc1cccc2ccccc12` gave MgrA-DNA mod -2.6 and S aureus helic -2.
Screening O=S(=O)(c1ccccc1)N(C1=NCCS1)S(=O)(=O)c1ccccc1 returned S aureus helic -5.
For Cc1cc(Cc2ccc(C(F)(F)F)cc2)c(=O)[nH]n1 the results were MgrA-DNA mod -0.4.
`Cc1cc(C)cc(Oc2coc3c(CN(C)C)c(O)ccc3c2=O)c1` gave MgrA-DNA mod -3.0 and S aureus helic -2.
O=C(OCC(=O)N1c2ccccc2Sc2ccccc21)C1=COCCO1 was read as S aureus helic 10.
`Cn1c(=S)[nH]c2ccccc21` gave S aureus helic 9.
`CC1(C)C2CC=C(COCC(O)CNCc3ccccn3)C1C2` (centres undefined) gave S aureus helic 6.
CCn1c(=N)c(C(=O)NC2CCCCC2)cc2c(=O)n3ccccc3nc21 was read as S aureus helic -28.
`COc1ccccc1NC(=O)Nc1cc(C(C)(C)C)nn1-c1ccccc1` gave S aureus helic 4.
For COc1cc(OC)c(OC)cc1CN1CCN(c2cccc(C)c2C)CC1 the results were MgrA-DNA mod 2.5 and S aureus helic -8.
For COc1ccc2sc(C3C(=O)c4cccnc4C3=O)nc2c1 (centres undefined) the results were MgrA-DNA mod -1.0 and S aureus helic 2.
For Fc1cccc(Cl)c1CN1CCN(c2nccc(C(F)(F)F)n2)CC1 the results were MgrA-DNA mod 1.8.
For Cc1csc2c(N3CCC(C(=O)O)CC3)ncnc12 the results were MgrA-DNA mod -1.5.
CN1C(=C2C(=O)CC(C)(C)CC2=O)Sc2ccccc21 was read as S aureus helic 19.
For C[n+]1cccc2ccc(O)cc21 the results were S aureus helic -127.
For CCN(C#N)c1ccc(Cc2ccc(N(C#N)CC)cc2)cc1 the results were MgrA-DNA mod -3.5 and S aureus helic 5.
`CC1CC(C)CN(C(c2ccco2)c2sc3ncnn3c2O)C1` (centres undefined) gave S aureus helic 12.
Screening N#Cc1c(SCC(=O)C23CC4CC(CC(C4)C2)C3)sc2c(=O)[nH]c(=O)[nH]c12 returned MgrA-DNA mod 25 and S aureus helic -4.
Cc1nn(C)c2[nH]c(C(F)(F)F)cc(=O)c12 was read as S aureus helic -38.
For O=C(CSc1nnc(-c2ccccc2F)n1C1CC1)Nc1ccccc1 the results were MgrA-DNA mod 2.6 and S aureus helic 15.
Screening Cc1noc(C(=O)N(C)C2CCCCC2)c1Cl returned S aureus helic 4.
`CCOC(=O)c1csc(NC(=O)C2CCCCC2)n1` gave S aureus helic 7.
`COc1ccc(N2C(=O)CC(c3ccccc3)C2=O)cc1` (centres undefined) gave S aureus helic 21.
For CC(=O)NCc1ccc(C(=O)CSc2nnc(-c3ccc4c(c3)OCO4)n2-c2ccccc2)o1 the results were S aureus helic 3.
`CN(C(=O)COc1ncnc2ccccc12)C1CCCCC1` gave MgrA-DNA mod -3.3 and S aureus helic 1.
For Cc1cc(C(=O)Nc2nc(-c3ccccc3)c(-c3ccccc3)s2)no1 the results were MgrA-DNA mod -0.6 and S aureus helic 1.
For O=C(OCCN1C(=O)c2cccc3c(N4CCOCC4)ccc(c23)C1=O)c1cc([N+](=O)[O-])cc([N+](=O)[O-])c1 the results were MgrA-DNA mod -1.2.
For O=S1(=O)C=CC(NCc2ccccc2)C1 (centres undefined) the results were MgrA-DNA mod -1.2 and S aureus helic 17.
Screening Cc1cc(C)c2c(-n3cccc3)c(C(=O)Oc3ccccc3)sc2n1 returned MgrA-DNA mod -1.9 and S aureus helic 10.
`CCn1c(NC)nc2c1c(=O)n(C)c(=O)n2C` gave S aureus helic 8.
Screening Cc1ccc(/C=C/C(=O)OCC(=O)c2cc(C)c(C)cc2C)o1 returned S aureus helic -6.
C=CCSc1nc(-c2ccccc2)c(C#N)c(=O)[nH]1 was read as MgrA-DNA mod 1.1 and S aureus helic 5.
For CCCCc1cc(=O)oc2c(CN(C)C)c(O)ccc12 the results were MgrA-DNA mod -7.0 and S aureus helic 13.
For N#CCOc1ccc(Br)cc1 the results were MgrA-DNA mod 3.1.
Screening CC1CC(NC(=S)NCCO)CC(C)(C)C1 (centres undefined) returned S aureus helic 26.
For CCOC(=O)N1CCN(S(=O)(=O)c2ccc(C(=O)Nc3cc(C)on3)cc2)CC1 the results were S aureus helic 8.
NC(=O)C1CCN(C(=O)CN2CCc3ccccc3C2)CC1 was read as MgrA-DNA mod -31 and S aureus helic 18.
For O=C(NCc1ccco1)c1ccc(-c2ccccc2Cl)o1 the results were MgrA-DNA mod 1.2 and S aureus helic -14.
For Cc1ccc(C(C)(C)C)c(OCCOCCN2CCCC2)c1 the results were MgrA-DNA mod -3.8 and S aureus helic 2.
`Cc1ccc(-c2nc3ccc(NCc4cccs4)cc3o2)cc1` gave MgrA-DNA mod -1.4 and S aureus helic 12.
`Cc1cccc2cnn(CC(=O)N3CCc4ccccc4C3)c12` gave S aureus helic 16.
Screening CCOC(=O)N1CCN(C(=O)c2cn(CC(C)C)c(=O)c3c2c2ccccc2n3C)CC1 returned S aureus helic -37.
Screening O=c1c2c3c(sc2nc2ccc(NCc4ccco4)nn12)CCCC3 returned S aureus helic 5.
For CCOc1cc(C2C(C(=O)OC)=C(C)NC3=C2C(=O)CC(c2ccc(OC)cc2)C3)cc(Br)c1O (centres undefined) the results were MgrA-DNA mod -2.7.
Screening CNC(=O)c1cc(S(=O)(=O)NC)ccc1C returned MgrA-DNA mod 2.2 and S aureus helic -20.
For Oc1ccc(Cl)c2cccnc12 the results were MgrA-DNA mod 6.3.
Screening CC(=O)Nc1ccc(-c2nc3ccccc3c(=O)o2)cc1 returned MgrA-DNA mod -3.0 and S aureus helic -5.
NC(=O)CN(Cc1ccccc1)S(=O)(=O)c1ccc(F)cc1 was read as S aureus helic 29.
CCSC1=N/C(=C\c2ccccc2)C(=O)N1c1ccc(C)c(Cl)c1 was read as MgrA-DNA mod 0.8 and S aureus helic 5.
`COC(=O)CC(=O)CSc1nc(C)cc(C(F)(F)F)c1C#N` gave MgrA-DNA mod 14 and S aureus helic 4.
O=c1oc2ccccc2cc1-c1nnnn1-c1ccc(F)cc1 was read as S aureus helic -21.
COc1ccc(C2CC(=O)C3=C(C2)NC(C)=C(C(=O)OCc2ccccc2)C3c2ccc(OC(C)=O)c(OC)c2)cc1 (centres undefined) was read as MgrA-DNA mod -2.7.
O=C(O)CCc1ccc(-c2ccccc2)n1-c1ccc(Cl)cc1 was read as MgrA-DNA mod 4.6 and S aureus helic 2.
`O=C1C=CC(=O)N1c1ccc(-c2nc3ccccc3o2)cc1` gave S aureus helic -46.
CCC(C)Nc1nc(-c2ccccc2O)nc2ccccc12 (centres undefined) was read as S aureus helic -12.
For COc1ccc(N2C(=O)c3ccc(-c4nc5ccccc5c(=O)o4)cc3C2=O)c(OC)c1 the results were S aureus helic 7.
Screening NC(=O)c1c(NC(=O)c2cc3ccccc3o2)sc2c1CCC2 returned MgrA-DNA mod 0.6 and S aureus helic 9.
For COc1ccc(N2CCN(Cc3c(O)ccc4ccccc34)CC2)cc1 the results were S aureus helic -16.
Screening O=C(C1=NN(c2ccccc2)C2C(=O)N(c3ccccc3)C(=O)C12)c1ccccc1 (centres undefined) returned MgrA-DNA mod 6.2 and S aureus helic -10.
For CCCC1CCC(C(=O)O)CC1 (centres undefined) the results were MgrA-DNA mod -1.4.
For O=C(O)/C=C/c1cnn(-c2ccccc2)c1 the results were S aureus helic -5.
Screening COCCc1cc(C(F)(F)F)c2c(=O)n(C)c(=O)n(C)c2n1 returned S aureus helic 11.
Screening CCOc1cc(/C=C2/C(=O)N(c3nn[nH]n3)N=C2C)cc(Cl)c1OCC returned MgrA-DNA mod 36 and S aureus helic 13.
`CC1CCc2c(sc3nc(C(C)C)n4c(SCC(=O)NCc5ccco5)nnc4c23)C1` (centres undefined) gave MgrA-DNA mod 2.6 and S aureus helic -10.
`O=C(/C=C/c1cn(Cc2ccccc2)nn1)N1CCN(C2CCS(=O)(=O)C2)CC1` (centres undefined) gave S aureus helic -9.
For O=C(O)c1ccc(OC(F)F)cc1 the results were S aureus helic 7.
Screening COc1ccc(CCC(=O)NCC(c2ccc(N(C)C)cc2)N2CCCC2)cc1 (centres undefined) returned S aureus helic 5.
For CN(C)NS(=O)(=O)c1ccc2c(c1)Cc1cc(S(=O)(=O)NN(C)C)ccc1-2 the results were MgrA-DNA mod 0.8 and S aureus helic 11.
Screening COC(=O)C1=C(C)N(C)C(=S)N(C)C1c1cccc(Br)c1 (centres undefined) returned S aureus helic 5.
Screening O=C(CSc1nc2c(sc3ccccc32)c(=O)n1CC1CCCO1)c1ccccc1 (centres undefined) returned MgrA-DNA mod 1.0 and S aureus helic -2.
For CN(C)CCCNc1c2c(nc3cc(-c4cccc(F)c4)nn13)CCC2 the results were MgrA-DNA mod -2.8 and S aureus helic 25.
For O=C(Nc1ccccc1)c1ccccc1 the results were MgrA-DNA mod -1.4 and S aureus helic 13.

Structures above containing a thiophene ring, fused or not:
Screening Cc1nn(-c2ccccc2)c2sc(C(=O)N(C)c3ccccc3)cc12 returned S aureus helic 12.
For O=C(OCCN1CCCCC1)c1cccs1 the results were S aureus helic 13.
O=C(Cc1cccs1)NC1(C(=O)NC2CCCC2)CCCCC1 was read as S aureus helic 4.
CCc1nnc2c3c(-c4ccc(F)cc4)c(C)sc3ncn12 was read as MgrA-DNA mod -9.2 and S aureus helic -11.
For Cc1csc2c(N3CCC(C(=O)O)CC3)ncnc12 the results were MgrA-DNA mod -1.5.
Screening N#Cc1c(SCC(=O)C23CC4CC(CC(C4)C2)C3)sc2c(=O)[nH]c(=O)[nH]c12 returned MgrA-DNA mod 25 and S aureus helic -4.
Screening Cc1cc(C)c2c(-n3cccc3)c(C(=O)Oc3ccccc3)sc2n1 returned MgrA-DNA mod -1.9 and S aureus helic 10.
`Cc1ccc(-c2nc3ccc(NCc4cccs4)cc3o2)cc1` gave MgrA-DNA mod -1.4 and S aureus helic 12.
Screening O=c1c2c3c(sc2nc2ccc(NCc4ccco4)nn12)CCCC3 returned S aureus helic 5.
Screening NC(=O)c1c(NC(=O)c2cc3ccccc3o2)sc2c1CCC2 returned MgrA-DNA mod 0.6 and S aureus helic 9.
`CC1CCc2c(sc3nc(C(C)C)n4c(SCC(=O)NCc5ccco5)nnc4c23)C1` (centres undefined) gave MgrA-DNA mod 2.6 and S aureus helic -10.
Screening O=C(CSc1nc2c(sc3ccccc32)c(=O)n1CC1CCCO1)c1ccccc1 (centres undefined) returned MgrA-DNA mod 1.0 and S aureus helic -2.
